Screening data: PubChem, National Center for Advancing Translational Sciences (NCATS)
FEN1 inhibitor – human FEN1 inhibition. P39748. Recombinant FEN1 flap cleavage, fluorescence, 15 min. Potency, µM (series often up to 114 µM), for inactives: at the highest dose activity change, negative = inhibition, hits mostly inhibitors. hit rate 0.35% among 390,000; further: nearly all actives have a fitted effect of over 65% in size
Target sequence (P39748 whole entry, looked up): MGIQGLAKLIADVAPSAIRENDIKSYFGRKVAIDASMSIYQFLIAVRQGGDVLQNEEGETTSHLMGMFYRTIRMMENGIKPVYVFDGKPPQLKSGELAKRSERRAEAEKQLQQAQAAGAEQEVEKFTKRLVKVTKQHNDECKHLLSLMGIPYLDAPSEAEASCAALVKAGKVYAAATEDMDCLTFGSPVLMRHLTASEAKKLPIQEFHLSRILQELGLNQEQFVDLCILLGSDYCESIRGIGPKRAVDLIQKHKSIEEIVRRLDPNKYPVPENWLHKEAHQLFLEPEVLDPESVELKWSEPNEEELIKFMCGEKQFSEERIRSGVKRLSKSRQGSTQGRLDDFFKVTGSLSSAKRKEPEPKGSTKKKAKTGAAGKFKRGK
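Concentration–response screening of FEN1 (10 nM): 15 min compound preincubation at room temperature, reaction started with 50 nM substrate and read at 0 and 15 min. Corrected, normalized data were fitted by a four-parameter Hill equation.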
N370S GC – inhibits or activates N370S mutant glucocerebrosidase; AID 2101; N370S GC spleen homogenate, 4MU-glucoside fluorescence; P04062; hit rate 0.092% among 330,000; Potency, µM (titrated, usually from 59.4 µM), for inactives: at the top dose activity change, negative = inhibition, actives largely listed as inhibitors;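 further: 0% = full enzyme activity and -100% = no enzyme basal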
Numbers without * were called inactive; ? = inconclusive; . = no result given; & = joins results of further samples; [ ] = another dose, or the depositor's remark. The call rests on the fitted dose curve; in most records, active means well fitted curve in the direction sought with a large enough effect; inconclusive means small, poorly fitted or top-dose-only effect, or another doubt; inactive means no such curve, though single readings can be large; an effect the other way counts as inactive or inconclusive. Unless noted, on the % scale 0 is the no-effect control and ±100 the full control effect; potency means the concentration at half of the fitted maximal effect. Not all compounds are listed; most or all hits stand in other tables.

entry | Structure | FEN1 inhibitor | N370S GC
1 | COc1cccc2c1OCC/C2=N\NC(=O)COc1ccccc1C | -3% | 9%
2 | FC(F)(F)c1ccccc1NC(=S)N/N=C1\CC2CC=CC12 (stereo not given) | 4% | 4%
3 | COc1ccccc1NC(=O)CSc1nc(=O)n(CCN(C)C)c2c1CCCC2 | 3% | -27%
4 | CCCOc1ccc(OCC(=O)c2[nH]c(C)c(C(C)=O)c2C)cc1 | -3% | 1%
5 | COc1nc(N(C)S(=O)(=O)c2ccc(C)cc2)nc(C)c1Cl | -19% | 0%
6 | Cc1nn(CC(=O)Nc2ccc3c(c2)nc2n3CCOC2)c(=O)c2ccccc12 | 3% | 3%[12.8 µM]
7 | CC(=O)CC(c1ccccc1)S(=O)(=O)c1ccc(C)cc1 (stereo not given) | -12% | 5%
8 | O=C(c1ccco1)N(Cc1nc2ccccc2c(=O)[nH]1)C1CCCC1 | -3% | 7%
9 | O=C(O)CCc1ccc(-c2cccs2)n1CCc1ccccc1 | 10% | 1%
10 | CCOc1cc(/C=C2/NC(=O)NC2=O)cc(Br)c1OCc1ccc(C(=O)O)cc1 | ? | 0%
11 | CNC(=O)Nc1ccc2snnc2c1 | -4% | -6%
12 | Nc1c(Cl)ncnc1N/N=C/c1ccnc2ccccc12 | 4% | -2%

Next section.
entry | Structure | FEN1 inhibitor | N370S GC
13 | Cc1ccc(S(=O)(=O)NCCCNc2ccc([N+](=O)[O-])cc2)cc1 | -3% | -8%
14 | O=C(CCCN1C(=O)c2ccccc2C1=O)NC1CCCCCC1 | -6% | 3%
15 | CCOc1cccc(NC(=O)C2CC(=O)N(c3ccc(F)cc3)C2)c1 (stereo not given) | -4% | -4%
16 | COc1ccc(CN2CCc3ccc(NC(=O)c4ccncc4)cc3C2)c(F)c1 | -5% | -3%
17 | CCOC(=O)C1CCC(CN(Cc2ccccc2)S(=O)(=O)c2ccc([N+](=O)[O-])cc2)CC1 (stereo not given) | 6% | -19%
18 | CC(C(=O)Nc1ccc(F)c(Cl)c1)N1Cc2ccccc2C1=O (stereo not given) | 11% | .
19 | Cc1ccc(Cn2ccc(NC(=O)c3cc4nc(-c5ccco5)cc(C(F)(F)F)n4n3)n2)cc1 | 8% | 7%
20 | CC(=O)c1ccccc1NC(=O)CCNC(=O)c1ccco1 | -4% | -1%
21 | COCCCN1C(=O)/C(=C/c2ccc(CNS(=O)(=O)c3ccccc3)o2)C(C(=O)OC)=C1C | 6% | -6%
22 | COC(=O)c1c(C#N)c(N)nc2c1CCCC2 | -10% | 31%
23 | CNC(=S)NNC(=O)c1ccc(C(C)(C)C)cc1 | 22% | 4%
24 | C=CCn1c(SCC(=O)NCc2ccccc2)nnc1C1CCCCC1 | 5% | 13%

New compounds follow:
entry | Structure | FEN1 inhibitor | N370S GC
25 | CCCc1nn(C)c(C(=O)Nc2ccc3ccccc3c2)c1Cl | -3% | 4%
26 | C=CCC(=O)N1CCCC(CNC(=O)c2ccc(-c3ccccc3)cc2)C1 (stereo not given) | -13% | 5%
27 | CC(=O)c1ccc(NC(=O)[C@@H]2CCCN2C2=NS(=O)(=O)c3ccccc32)cc1 | -1% | .
28 | Cc1cc(C)c2c(N)c(C(=O)c3cccc(Cl)c3)sc2n1 | -7% | ?
29 | CCN(CC(=O)Nc1ccccc1C(F)(F)F)C(=O)c1ccc2c(c1)NC(=O)CS2 | 7% | 0%
30 | Cc1ccc(-c2nnn(CC(=O)NC3CCCc4ccccc43)n2)cc1 (stereo not given) | -1% | 9%
31 | O=c1oc(-c2ccccc2NS(=O)(=O)c2ccccc2)nc2ccccc12 | 3% | 7%
32 | CC/C=C\C/C=C\C/C=C\CCCCCCCCCC(=O)O | . | -2%&2%
33 | CC(C)C(NC(=O)CCNC(=O)c1ccccc1Cl)c1nc2ccccc2[nH]1 (stereo not given) | -4% | .
34 | COC(=O)CCCC(=O)N1CCC(CCC(=O)NC2CC2)CC1 | 1% | -1%
35 | CC(C)CN(C(=O)c1cccc(Cl)c1)c1c(N)n(Cc2ccccc2)c(=O)[nH]c1=O | 3% | .
36 | CCOC(=O)c1c(N2C(=O)Nc3ccccc3N2O)sc2c1CCCCC2 | -2% | 7%

(listing goes on)
entry | Structure | FEN1 inhibitor | N370S GC
37 | Nn1c(-c2ccccc2Cl)nnc1-c1ccccc1Cl | -3% | 1%
38 | Cc1ccc(N(Cc2cc3cccc(C)c3[nH]c2=O)S(=O)(=O)c2ccccc2)c(C)c1 | -16% | -16%
39 | CN(CCc1cnn(C)c1)C(=O)C1CCC(=O)N(CC2CCCCC2)C1 (stereo not given) | -11% | -6%
40 | O=C(NC1CCCCC1)c1cc(-c2cccc(Cl)c2)on1 | -20% | 1%
41 | Nc1ccccc1C(=O)NCc1ccco1 | 1% | -5%
42 | N#C/C(=C\c1cn[nH]c1-c1ccc(Cl)cc1)C(=O)NCc1ccccc1 | 13% | 5%
43 | CCOC(=O)N1CCN(C(=O)C2CCC(=O)N(CCCN3CCCC3=O)C2)CC1 (stereo not given) | -6% | 0%
44 | COc1ccc(S(=O)(=O)N(CC(=O)O)c2ccccc2)cc1 | -4% | 5%
45 | COC(=O)c1cc(NC(=S)NC(=O)c2ccccc2)ccc1N1CCOCC1 | -22% | -4%
46 | C[C@@H](O)C(C(=O)N1CCNCC1)n1cc([C@@H](N)CCCCN)nn1 (stereo not given in full) | 15% | -4%
47 | COc1cccc(CN2CC(C(=O)NCCSc3nnnn3C)CCC2=O)c1 (stereo not given) | 6% | -4%
48 | CCc1nnc(NC(=O)CSc2nc3ccccc3s2)s1 | -12% | 2%

Continued.
entry | Structure | FEN1 inhibitor | N370S GC
49 | S=C(Nc1cccc(Cl)c1)NC1CC2CCCC(C1)N2C1CCCC1 (stereo not given) | 19% | -11%
50 | COc1ccccc1N(C)S(=O)(=O)c1ccc(Cl)c(C(=O)NCc2ccco2)c1 | -5% | .
51 | CCOCCCNC(=O)CCCOc1ccccc1 | -10% | 2%
52 | Cc1cc(NC(=O)c2ccc(NC(=O)c3cccs3)cc2)no1 | 8% | 8%
53 | CC1Cc2ccccc2N1C(=O)COC(=O)c1cc(Br)ccc1O (stereo not given) | -19% | -9%
54 | O=S(=O)(NCCc1csc2nc(-c3ccc(Cl)cc3)nn12)c1ccc(Oc2ccccc2)cc1 | 15% | .
55 | CC(C)[C@@H](C(=O)OCC(=O)c1ccc2c(c1)NC(=O)CO2)N1C(=O)c2ccccc2C1=O | -9% | .
56 | O=C(COC(=O)c1ccc2ncsc2c1)Nc1ccccc1Br | 12% | .
57 | Cn1c(N)c(C(=O)COC(=O)c2cccnc2Cl)c(=O)n(C)c1=O | 1% | 3%
58 | NC(=O)CSc1nc(N)c2c3c(sc2n1)CCCCC3 | -13% | 3%
59 | O=C(Nc1ccccc1Cl)c1cccc(NC(=O)c2cccs2)c1 | ? | -4%
60 | N#CC1=C(N)N=C(SCc2cccc3ccccc23)C(C(N)=O)C12CCCCC2 (stereo not given) | -15% | -26%

(more compounds)
entry | Structure | FEN1 inhibitor | N370S GC
61 | COc1cc(OC)cc(-c2nc3ccccc3c(=O)n2OC(=O)c2ccc(Br)cc2)c1 | 0% | -6%
62 | Cc1cccc(CC2SC(N3CCN(c4ccccc4)CC3)=NC2=O)c1 (stereo not given) | 1% | 4%
63 | CC1CCc2nc(NC(=O)C3CCCO3)sc2C1 (stereo not given) | -1% | 6%
64 | Cc1nnc(N2CCOCC2)c2nn(-c3ccccc3)c(C)c12 | 7% | 18%
65 | C=CCc1cccc2cc(C(=O)Nc3ccc(NC(C)=O)cc3)c(=O)oc12 | -3% | -11%
66 | COc1ccc(CN2CCN(C(=O)CC(C)C)CC2)c(OC)c1OC | 10% | 17%
67 | Cn1nc(C(=O)OCC(=O)Nc2ccc(F)cc2Cl)c2ccccc2c1=O | 2% | .
68 | CCN1/C(=C(\O)c2ccccc2)C(=O)c2ccccc2S1(=O)=O | 7% | 1%
69 | COC(=O)c1ccc(NS(=O)(=O)c2ccc(Cl)cc2)o1 | 4% | 4%
70 | O=C(COC(=O)c1ccc(S(=O)(=O)NCc2ccco2)cc1)NCC1CCCCC1 | 8% | 0%
71 | Cc1nc2cc(NC(=O)c3ccc(Br)s3)ccc2s1 | -20% | 4%
72 | C[C@@H]1/C(=N/O)CC2C[C@@H]1C2(C)C | . | 19%

(next part)
entry | Structure | FEN1 inhibitor | N370S GC
73 | O=S(=O)(c1ccc(S(=O)(=O)N2CCC3(CC2)OCCO3)cc1)N1CCCC1 | -4% | 1%
74 | Cc1ccccc1NC(=O)c1oc2c(c1C)-c1nn(Cc3cccc(Cl)c3)cc1CC2 | 2% | .
75 | COc1cc2oc(=O)cc(C)c2c(OC)c1OC | 6% | -6%
76 | COc1ccc(NC(=O)C2=C(C)NC(=S)NC2c2ccc(O)c(OC)c2)cc1 (stereo not given) | -1% | -10%
77 | CCSC(=O)NC12CC3CC(CC(C3)C1)C2 | 2% | 9%
78 | CSc1nc(-c2ccco2)nn1C(=O)Cc1ccccc1 | -2% | 7%
79 | Cc1cccc(C)c1NC(=O)CNc1ccccc1 | 7% | -2%
80 | COCCCNC(=S)N1CCN(c2nc3ccccc3s2)CC1 | 1% | 6%
81 | CCc1ccc(NC(=O)CCN2C(=O)c3cccnc3C2=O)cc1 | 6% | 4%
82 | CCCc1cc(=O)[nH]c(SCC(=O)N(C)CC(=O)Nc2ccccc2CC)n1 | -13% | 1%
83 | COc1ccc(C)cc1NC(=S)NNC(=O)c1ccccc1Cl | 4% | 15%
84 | O=[N+]([O-])c1cccc(NC(=S)NCCc2ccccc2)c1 | -14% | 6%

Carrying on.
entry | Structure | FEN1 inhibitor | N370S GC
85 | O=C(Nc1cccc(S(=O)(=O)N2CCCCC2)c1)C1=NN(c2ccccc2)C(=O)CC1 | -11% | .
86 | CC(OC(=O)c1cc(S(=O)(=O)N2CCOCC2)ccc1Br)C(=O)N1CCOCC1 (stereo not given) | 1% | .
87 | CCN1CCN(C(=O)C(NS(=O)(=O)c2ccc3nc(C)sc3c2)C(C)C)CC1 (stereo not given) | -11% | -5%
88 | Cn1cc(C(=O)c2cccc(Cl)c2Cl)cc1C(=O)O | -3% | 22%
89 | NC(=O)CC(NC(=O)Cc1ccc(Br)cc1)c1ccc(N2CCN(c3ccc(F)cc3)CC2)c([N+](=O)[O-])c1 (stereo not given) | -3% | -16%
90 | N#Cc1cnn2c(N)c(-c3ccc(Cl)cc3)cnc12 | -6% | 5%
91 | Cc1ccc(-c2nnc(SCC(=O)Nc3ccc(N4CCOCC4)cc3)o2)cc1 | 0% | 14%
92 | Cc1c(C(=O)N(Cc2ccc(Cl)cc2)C2CCS(=O)(=O)C2)oc2ccccc12 (stereo not given) | -13% | -3%
